Rango release inh: inhibitors of RanGTP-induced Rango-importin beta complex dissociation; O95149+P62826; Biochemical FRET Rango-importin beta, RanGTP-induced dissociation; Potency, µM (series often up to 46.1 µM), inactives show top-dose activity change, negative = inhibition; 340,000 compounds, 0.071% hits; AID 540253; active means falling FRET ratio curve, often poorly fitted, with flat reads before Ran was added; inconclusive means other falling curves, or compound fluorescence or quenching; inactive means flat or rising ratio curve;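 also: potency is read from the fitted curve at half-maximal effect; % of control where 0% means no effect; nearly all actives have a fitted effect of over 45% in size; -100% = wells without RanGTP and RCC1; the record marks most hits as doubtful in a second field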
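Rango FRET biosensor (snurportin-1 IBB flanked by N-terminal EYFP and C-terminal CFP10) at 0.1 uM, with 0.25 uM importin beta in PBS, 1mM DTT, 0.02% Tween-20, 0.1% BSA. 0.6 uM Ran, 2mM GTP and 0.2 uM RCC1 were then added for 45 min at room temperature. Inhibition read as loss of FRET rise.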
GLA inh pH 4.5: inhibitors of human alpha-galactosidase A at pH 4.5; P06280; purified enzyme, 4-MU-alpha-Gal fluorescence, pH 4.5; activity change, negative = inhibition, % at 105 µM; 230,000 tested, under 10 active; inconclusive = small, poorly fitted or top-dose-only inhibition, or a rising curve; inactive = flat fitted curve, though single readings scatter; no compound was filed as active;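 also: 0% = full activity with enzyme and -100% = basal without enzyme; dose as in the result columns while the protocol names 77 µM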
Target sequence (P06280 whole entry, looked up): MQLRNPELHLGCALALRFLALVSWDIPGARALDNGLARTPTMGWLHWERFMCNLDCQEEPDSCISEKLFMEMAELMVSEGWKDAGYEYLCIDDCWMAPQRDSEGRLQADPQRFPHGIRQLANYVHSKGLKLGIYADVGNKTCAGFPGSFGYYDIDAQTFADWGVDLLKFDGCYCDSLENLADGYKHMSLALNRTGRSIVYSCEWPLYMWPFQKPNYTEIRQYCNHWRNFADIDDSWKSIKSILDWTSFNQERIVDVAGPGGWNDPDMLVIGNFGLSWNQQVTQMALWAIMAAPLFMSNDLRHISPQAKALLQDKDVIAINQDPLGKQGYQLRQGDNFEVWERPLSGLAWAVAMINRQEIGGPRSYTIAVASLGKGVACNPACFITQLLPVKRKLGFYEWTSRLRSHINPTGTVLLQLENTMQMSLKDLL
Rango complex inh: prevents formation of the Rango-importin beta complex; Q14974; Rango CFP/YFP FRET sensor + importin beta, 45 min; Potency, µM (highest dose often 92.2 µM), for the others: at the top dose inhibition of complex formation; 340,000 compounds, 0.031% hits; AID 540263; active = rising FRET ratio curve, often small or poorly fitted; inconclusive = mostly compound fluorescence or quenching in the first reads; inactive = flat curves in all reads;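 also: potency is read from the fitted curve at half-maximal effect; 0% = DMSO wells and 100% = buffer wells lacking importin beta; nearly all actives have a fitted effect of over 15% in size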
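FRET biosensor (snurportin 1 IBB flanked by EYFP and cerulean), 50 nM, with compound 5 min, then 0.125 microM importin beta in PBS, 1 mM DTT, 0.02% Tween-20, 0.1% BSA. CFP/YFP ratio read after 45 min at room temperature; pre-read flags interference.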
miR-21 reporter: raises the signal of a miR-21 reporter | HeLa miR-21 FLuc reporter, luciferase, 48 h | Potency, µM (top dose mostly 38.3 µM), for the others: at the highest dose reporter change, positive = more light | 340,000 tested, under 10 active; active = well fitted rising curve with a large enough effect; inconclusive = small, poorly fitted or top-dose-only effect; inactive = no such curve, though single readings can be large or run the other way;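 also: % of control where 0% means no effect; miR-21 action dims this reporter so a rising signal means less miR-21 action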
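Using DMEM plus 10% FBS, HeLa miR-21-FLuc cells are incubated with test compounds (final up to about 40uM) for 48 hours; firefly luciferase signal is then imaged following reagent-mediated lysis.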
* marks the source's active call; other numbers are inactive results; ? = inconclusive; . = not tested or not shown; & = joins results of further samples. These rows are one share of the data; rates above refer to the full screens.

SMILES	Rango release inh	GLA inh pH 4.5	Rango complex inh	miR-21 reporter
O=C(c1cc2cc(F)ccc2[nH]1)N1CCc2ccccc2C1	-16%	.	-0.5%	-41%
O=C(COC(=O)c1ccc(S(=O)(=O)N2CCCCC2)cc1)Nc1ccccc1	-7%	.	0.1%	.
Oc1ccc(C=NNC(=S)Nc2cccnc2)nc1	-18%	.	?	.
Cn1nc(-c2ccc(S(N)(=O)=O)s2)cc1C(F)(F)F	-1%	-2	-0.8%	2%
CN(C)c1ccc(/C=N\NC(=O)c2ccc(Cn3cc(Cl)cn3)cc2)cc1	?	-4	?	3%
Cc1ccc(NNC(=O)c2cc(C)on2)c(C)c1	1%	-2	1.7%	-2%
CC(c1ccccc1)n1cnc2ccccc21 (stereo not given)	4%	-5	-0.2%	-2%
Cn1c(=O)oc2cc(S(=O)(=O)N3CCCC(C(=O)NCc4ccc5c(c4)OCO5)C3)ccc21 (stereo not given)	5%	-5	0.1%	0%
CCc1ccc2cccc3c2c1N=CN3C	1%	.	3.4%	.
COCCn1nnnc1SCC(=O)c1ccccc1	5%	0	-3.5%	-27%
Nc1nc(C(=O)N2CCOCC2)nn1S(=O)(=O)c1ccccc1	2%	3	0.0%	0%
CC(OC(=O)c1cc(=O)[nH]c2ccccc12)C(=O)N1C(C)CCCC1C (stereo not given)	-15%	.	?	.
C#Cc1ccc([C@H]2C=C(C(=O)NCc3nc4ccccc4[nH]3)O[C@@H](OCC)[C@@H]2CCCO)cc1	1%	.	-1.0%	.
Cc1sc2ncnc(N3CCC(C(=O)NNC(=O)COc4ccccc4F)CC3)c2c1C	-2%	.	4.2%	.
CC(NCc1ccc2c(c1)OCO2)C(=O)NC1CCCc2ccccc21 (stereo not given)	10%	-4	0.0%	-2%
O=C(c1ccc(Cl)cc1Cl)N1CCN(c2ccccn2)CC1	-3%	.	-3.0%	16%
COc1ccccc1NC(=O)COc1ccccc1C(=O)c1cnn(-c2ccccc2)c1	-11%	-6	-3.2%	-49%
O=C(O)CN(c1ccccn1)S(=O)(=O)c1ccccc1	12%	9	-0.4%	3%
CCOC(=O)CN1C(=O)c2ccccc2C1=O	-1%	7	-2.8%	1%
COc1ccc(NC(=O)N2CCCCC2)cc1	4%	-4	-1.5%	-25%
COc1cc(/C=C/C(=O)OCc2c(C)noc2C)ccc1OC(F)F	-7%	-24	-3.6%	-5%
C/C(=C\c1ccc(N)cc1)c1nc2ccccc2[nH]1	-16%	.	0.5%	-57%
CCCC(OC(=O)CC1Sc2ccccc2NC1=O)C(=O)NCc1ccco1 (stereo not given)	-4%	-10	?	2%
CN(c1ccccc1C(=O)Nc1ccc2ccccc2c1)S(C)(=O)=O	12%	.	2.4%	.

Looked up one by one from the entries so far, 5 records:
SMILES	Rango release inh	GLA inh pH 4.5	Rango complex inh	miR-21 reporter
COc1cc(/C=C/C(=O)OCc2c(C)noc2C)ccc1OC(F)F	-7%	-24	-3.6%	-5%
COc1ccc(NC(=O)N2CCCCC2)cc1	4%	-4	-1.5%	-25%
O=C(c1ccc(Cl)cc1Cl)N1CCN(c2ccccn2)CC1	-3%	.	-3.0%	16%
COc1ccccc1NC(=O)COc1ccccc1C(=O)c1cnn(-c2ccccc2)c1	-11%	-6	-3.2%	-49%
CN(c1ccccc1C(=O)Nc1ccc2ccccc2c1)S(C)(=O)=O	12%	.	2.4%	.

New compounds follow:
SMILES	Rango release inh	GLA inh pH 4.5	Rango complex inh	miR-21 reporter
Cc1cc(C)nc(SCC(=O)Nc2sc3c(c2C#N)CCC(C)C3)n1 (stereo not given)	21%	.	-1.3%	.
COc1ccc(S(=O)(=O)N2CC(=O)Nc3ccccc32)cc1	-11%	.	0.1%	-4%
COc1ccc(CCNC(=O)CSc2nc3[nH]ncc3c(=O)n2-c2ccc(Br)cc2)cc1OC	-17%	-3	-0.8%	-12%
Nc1ccc(-c2cc3ccccc3oc2=O)cc1	?	.	?	29%
Cc1ccc(S(=O)(=O)Nc2ccc(N3CCOCC3)cc2)cc1[N+](=O)[O-]	-9%	4	4.2%	3%
COc1cc2nc(SCc3c(C)noc3C)n(CCC3=CCCCC3)c(=O)c2cc1OC	15%	-5	-0.9%	-3%
Cc1ccc(C)c(C(=O)CN2C(=O)NC3(CCc4ccccc43)C2=O)c1 (stereo not given)	-18%	.	-0.1%	.
Cc1ccc(NC(=O)Nc2ccc3c(c2)OCO3)cc1F	2%	.	9.4%	-60%
N#Cc1ccc(-c2cccnc2)nc1SCC(=O)Nc1sc2c(c1C#N)CCC2	?	2	?	-16%
Cc1cccc(NC(=O)C2(c3cccs3)CCOCC2)c1	0%	5	0.2%	-6%
Cc1cc(-c2ccccc2)n2nc(C)c(C#N)c2n1	-2%	2	2.7%	-17%
S=c1[nH]nc(-c2ccco2)n1Cc1ccccc1	-5%	0	5.9%	-10%
COc1ccccc1N1CCN(C(=O)CCc2ccc(S(=O)(=O)NC(C)C)cc2)CC1	10%	2	1.1%	15%
O=C(Cc1c(F)cccc1Cl)Nc1ccccn1	3%	.	-0.3%	-31%
CC(C)OC(=O)c1ccc(OC(=O)c2cccnc2)cc1	-11%	0	0.2%	-21%
COc1cccc(C(C(=O)NC2CCCCC2)N(C(=O)c2ccco2)c2ccc(-n3cnnn3)c(C)c2)c1 (stereo not given)	6%	-4	-0.7%	-10%
N#CC1=C(N)C(C#N)(C#N)[C@H](c2ccncc2)[C@H]2CN(C(=O)OCc3ccccc3)CC=C12	?	-11	0.1%	-10%
CCc1c(C)nc2cc(-c3cc(OC)cc(OC)c3)nn2c1N1CCCC1	1%	-11	-0.1%	-5%
CC(=O)c1cccc(NC(=S)NC(=O)Cc2ccc(Cl)cc2)c1	16%	.	0.2%	-4%
COc1cc(C(C)=O)ccc1COc1ccc(C(=O)OCC(N)=O)cc1OC	-4%	8	1.4%	-4%
O=c1cc(-c2ccccc2)nc(SCc2ccccc2F)[nH]1	0%	-5	1.3%	-1%
CC(C)(C)C1CCC(=NNC(=S)NCc2ccccc2)CC1 (stereo not given)	4%	-3	-0.3%	3%
O=C1NN(c2ccc(F)c(Cl)c2)C(=O)/C1=C\c1cccc(OC(=O)c2cccs2)c1	-8%	1	0.1%	-4%
COC1(NC(=O)c2ccccc2)C(C)=CC(=O)C=C1C	6%	6	2.3%	2%
CCOC(=O)COc1ccc(S(=O)(=O)Nc2ccc(C)cc2)cc1	6%	2	1.5%	0%
CC=Cc1cc2c(c(=O)o1)C(=O)C(O)C(C)O2 (stereo not given)	14%	.	-4.2%	.
CCCOC(=O)c1cc(-c2ccc(C=O)o2)ccc1Cl	-5%	3	-6.4%	-43%
CC(=O)Nc1ccc(NS(=O)(=O)c2ccc3c(c2)NC(=O)CC(=O)N3)cc1	-10%	.	1.2%	0%
CCC(C)c1ccc(NC(=O)COC(=O)C2CCCC2)cc1 (stereo not given)	-16%	.	0.7%	.
CCC(C)[C@H](NC(=O)NCc1ccc(Cl)cc1)C(=O)OC (stereo not given in full)	0%	4	-0.4%	-3%
CC(=O)Nc1ccc(Nc2cc(C)nc3c(-c4ccccc4)c(C)nn23)cc1	4%	-1	-0.9%	-3%
COc1ccc(C2=Nn3c(nnc3C(F)(F)F)SC2)cc1	3%	.	0.8%	16%
C#CCNC(=O)C1=C[C@@H](c2cn(C(C)=O)c3ccccc23)C[C@@H](OCc2ccc(CO)cc2)O1	-4%	8	-0.1%	6%
O=c1[nH]cnc2onc(-c3ccc(F)cc3)c12	-8%	.	-3.2%	-4%
Cn1nnnc1SCc1cccc2ccccc12	15%	2	-6.1%	-21%
O=C(NC(NC(=S)Nc1c(Cl)cc(Cl)cc1Cl)C(Cl)(Cl)Cl)OCc1ccccc1 (stereo not given)	0%	3	0.3%	26%

A run of entries from further up, as a working copy:
SMILES	Rango release inh	GLA inh pH 4.5	Rango complex inh	miR-21 reporter
CCC(C)[C@H](NC(=O)NCc1ccc(Cl)cc1)C(=O)OC (stereo not given in full)	0%	4	-0.4%	-3%
CC(=O)Nc1ccc(Nc2cc(C)nc3c(-c4ccccc4)c(C)nn23)cc1	4%	-1	-0.9%	-3%
COc1ccc(C2=Nn3c(nnc3C(F)(F)F)SC2)cc1	3%	.	0.8%	16%
C#CCNC(=O)C1=C[C@@H](c2cn(C(C)=O)c3ccccc23)C[C@@H](OCc2ccc(CO)cc2)O1	-4%	8	-0.1%	6%
O=c1[nH]cnc2onc(-c3ccc(F)cc3)c12	-8%	.	-3.2%	-4%
Cn1nnnc1SCc1cccc2ccccc12	15%	2	-6.1%	-21%
O=C(NC(NC(=S)Nc1c(Cl)cc(Cl)cc1Cl)C(Cl)(Cl)Cl)OCc1ccccc1 (stereo not given)	0%	3	0.3%	26%

New compounds follow:
SMILES	Rango release inh	GLA inh pH 4.5	Rango complex inh	miR-21 reporter
Cc1ccc2[nH]c(C(=O)N/N=C/c3ccccc3O)c(C)c2c1	-7%	.	1.7%	-1%
Cn1c(/C=N/NC(=O)c2ccccc2)nc2ccccc21	-13%	-1	0.7%	-10%
O=C(O)c1cc(NN=C2CCN(Cc3ccccc3)CC2)ccc1Cl	-29%	5	?	-3%
CN1C[C@@H]2C(c3ccccc3)C3(c4ccc(C#N)cc4)CC2(C3)[C@H]1c1ccccc1 (stereo not given in full)	5%	-1&-4	-0.5%	6%
NC(=O)c1c(NC(=S)Nc2ccccc2)sc2c1CCCC2	-9%	-13	?	-37%
N#C/C(=C\c1ccc(Cl)cc1)c1nc2ccccc2o1	?	-2	?	-13%
CC(C(=O)Nc1ccc2c(c1)OCO2)N(c1ccc(Cl)cc1)S(C)(=O)=O (stereo not given)	-10%	-2	?	5%
CCN(CC)N=Nc1cccc(NC(C)=O)c1	10%	2	1.0%	2%
C=CC[C@H](CC(=O)N[C@H](CO)Cc1ccccc1)C(=O)N[C@@H](COC(=O)[C@H](CC=C)CC(=O)OC(C)(C)C)Cc1c[nH]c2ccccc12	-4%	.	-2.6%	.
CCOC(=O)CNS(=O)(=O)c1c(C)noc1C	-6%	0	0.1%	-2%
Cc1c(NC(=O)c2ccc(Cl)c(S(=O)(=O)N3CCOCC3)c2)c(=O)n(-c2ccccc2)n1C	-17%	-11	-2.9%	-4%
COc1cccc(NC(=O)C2Cc3ccccc3CN2C(=O)c2ccco2)c1 (stereo not given)	16%	.	-2.0%	-45%

The closing 3 compounds of the part above are carried over, then new ones follow:
SMILES	Rango release inh	GLA inh pH 4.5	Rango complex inh	miR-21 reporter
CCOC(=O)CNS(=O)(=O)c1c(C)noc1C	-6%	0	0.1%	-2%
Cc1c(NC(=O)c2ccc(Cl)c(S(=O)(=O)N3CCOCC3)c2)c(=O)n(-c2ccccc2)n1C	-17%	-11	-2.9%	-4%
COc1cccc(NC(=O)C2Cc3ccccc3CN2C(=O)c2ccco2)c1 (stereo not given)	16%	.	-2.0%	-45%
COc1ccc(C2C=C(c3cccs3)Nc3nc(CCCO)nn32)cc1 (stereo not given)	.	24	.	-18%
CCOc1ccccc1N1CCN(Cc2cc3c(cc2[N+](=O)[O-])OCO3)CC1	-7%	.	5.8%	-1%
Nc1ccc(-c2nc3c(ccc4ccccc43)[nH]2)cc1	-15%	.	?	23%
CCC(C)(C)NC(=O)Cn1c(-c2ccccc2)cc(C(C)=O)c1C	-1%	0	-1.4%	5%
